# Mtb growth = Mycobacterium tuberculosis H37Rv growth inhibition, putative kinase inhibitor library, confirmatory dose response (AID 2842) | M. tuberculosis H37Rv growth inhibition; higher % means a stronger effect; some inactives read as strong as hits | inhibition, % at 10 µg/mL, or IC90 in µg/mL where a hit was titrated | 24,000 compounds, 5.2% hits;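 active = confirmed in a dose series; about a fifth of its hits are not listed in these tables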;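 also: bacteria incubated one week before Alamar blue readout; 0% = bacteria only wells and 100% = bacteria with high antibiotic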
# * marks the source's active call; other numbers are inactive results.
SMILES,Mtb growth
COc1ccc2cc(CCNC(=O)c3cccc(OC)c3OC)c(=O)[nH]c2c1,11%
CC(C)(C)C(=O)Nc1ccc2c3c(cccc13)C(=O)N2,-2%
CCOc1ccc(-n2c(SCC(=O)NCCc3ccccc3)nc3c([nH]c4ccccc43)c2=O)cc1,8%
Nc1c(C(=O)c2ccccc2)sc2nc3c(c(-c4ccco4)c12)CC/C3=C\c1ccco1,9%
O=C(NCc1ccccc1Cl)c1cnc2sccn2c1=O,1%
O=S(=O)(Nc1cc(Sc2ncn[nH]2)c(O)c2ccccc12)c1ccc(F)cc1,-6%
COc1ccc2nc(NC(=O)c3ccccc3Oc3ccccc3)sc2c1,-8%
CS(=O)(=O)c1ccc(SCC(=O)O)c([N+](=O)[O-])c1,7%
Cc1cc(C)c2sc(NNC(=O)c3ccc(S(=O)(=O)N4CCCCC4)cc3)nc2c1,29µg/mL*
O=C(Nc1nc2c(cc3c4c(cccc42)CC3)s1)c1cccs1,-8%
Cc1cc2ncn(CCc3noc(-c4ccco4)n3)c2cc1C,0%
CC1CN(C(=O)CSc2nnc(NC(=O)NC(C)(C)C)s2)CC(C)O1 (stereo not given),-11%
O=C(NCc1ccccc1)C(=O)Nc1cc2c3c(c1)CCN3C(=O)CC2,-3%
COc1ccc(OC)c(NC(=O)c2oc3ccccc3c2NC(=O)C2CCCO2)c1 (stereo not given),4%
CC(=O)c1cccc(NC(=O)c2cnc3scc(C)n3c2=O)c1,1%
CC(=O)CSc1nc2c(c(=O)n(C)c(=O)n2C)n1CCCc1ccccc1,2%
Cc1cc(C)c(-c2csc(NC(=O)c3ccc(S(=O)(=O)N(C)c4ccccc4)cc3)n2)c(C)c1,5%
COc1ccccc1NC(=O)Cn1cc(S(=O)(=O)c2ccc(C)c(C)c2)c(=O)c2cc(C)ccc21,1%
Cc1ccc(-c2nnc(NC(=O)C(c3ccccc3)c3ccccc3)o2)c(C)c1,-4%
O=C(CSc1ccc2nnc(-c3cccs3)n2n1)Nc1nc2ccccc2s1,-5%
O=Cc1ccc2cccnc2n1,-13%
CCOC(=O)c1nn(-c2ccc(C)cc2)c(=O)c2c(NC(=O)C(C)(C)C)scc12,-3%
CCOCCCn1c(=N)c(C(=O)NC)cc2c(=O)n3ccccc3nc21,72%
Cn1c(NC(=O)COc2ccccc2)cc(=O)n(C)c1=O,-4%
O=C(CSc1nncc(=O)[nH]1)Nc1ccccc1Sc1ccccc1,1%
O=C(CC1Sc2ccccc2NC1=O)Nc1ccc(S(=O)(=O)Nc2ccccn2)cc1 (stereo not given),7%
O=C(COC(=O)c1ccc2c(c1)C(=O)N(c1ccccc1Cl)C2=O)Nc1cc(Cl)cc(Cl)c1,6%
Cc1ccc(-c2csc(NC(=O)c3ccc(S(=O)(=O)N4CCCCC4C)cc3)n2)cc1 (stereo not given),52%
COc1cccc(NC(=O)c2cn(C)cc3c(=O)n(-c4ccccc4)nc2-3)c1,-1%
COc1ccc(C2/C(=C(\O)c3ccc(C)cc3)C(=O)C(=O)N2c2nncs2)cc1 (stereo not given),-3%
CC(C)CN1CC2=C(C1=O)C(c1ccc(F)cc1)NC(=O)N2 (stereo not given),-20%
COc1ccc(C)c2sc(N(CCCn3ccnc3)C(=O)Cc3ccccc3)nc12,21µg/mL*
O=C(CSc1nccn1-c1ccccc1)NCc1ccc2c(c1)OCO2,9%
COc1ccc(CC(=O)Nc2nnc(C)s2)cc1,2%
COc1ccc(-c2nc(SCC(=O)Nc3ccc(Br)cc3)c3c(=O)n(C)c(=O)n(C)c3n2)cc1,-1%
O=c1c(S(=O)(=O)c2ccc(F)cc2)cn(Cc2ccccc2F)c2ccc(F)cc12,-4%
CS(=O)(=O)c1ccc(S(=O)CC(=O)Oc2ccc(Cl)cc2)c([N+](=O)[O-])c1 (stereo not given),-9%
COc1ccc(-n2c(=O)[nH]c3c(C(N)=O)nc(-c4cc(OC)c(OC)c(OC)c4)nc32)cc1,10%
Cc1ccc(-c2nnc(NC(=O)c3ccccc3Br)o2)c(C)c1,0.27µg/mL*
CCN(c1ccc(OC)cc1)c1ncnc2nc[nH]c12,2%
Fc1cccc2sc(N3CCOCC3)nc12,0%
COc1cccc(Nc2nc3cc(OC)ccc3s2)c1,3%
O=C(CSc1nnc2ccc(-c3ccccn3)nn12)Nc1ccc(F)cc1,0%
Cc1nnsc1C(=O)Nc1ccc([N+](=O)[O-])cc1C(F)(F)F,28µg/mL*
COc1ccc2c(Cl)c(C(=O)NCCC3=CCCCC3)sc2c1,10%
O=C(O)c1ccccc1C(=O)Nc1cccc(-c2cn3ccccc3n2)c1,-22%
Cc1cccc(CSc2nnc3ccc(-c4cccs4)nn23)c1,9%
Cc1ccc2cc(CCNC(=O)c3ccc(Cl)cc3Cl)c(=O)[nH]c2c1C,-8%
COc1ccccc1Nc1ncnc(N)c1[N+](=O)[O-],2%
CC1C(=O)N2CCCc3cc(S(=O)(=O)Nc4ccc(F)c(C(F)(F)F)c4)cc1c32 (stereo not given),-1%
CCCCCN1C(=O)/C(=C2\SC(N)=NC2=O)c2cc(Br)ccc21,12%
Cc1ccc(S(=O)(=O)CC(=O)Nc2sc(C)c(C)c2-c2nc3ccccc3s2)cc1,-12%
COc1cc(OC)cc(C(=O)Nc2nnc(-c3cccc(C)c3)s2)c1,8%
Cc1cc(C)cc(NC(=O)CSc2ncnc3ccccc23)c1,10%
O=C(Nc1nnc(-c2ccc(Cl)cc2)s1)c1ccc(S(=O)(=O)N2CCCCC2)cc1,2%
COc1ccc(C(=O)Nc2nnc(C34CC5CC(CC(C5)C3)C4)s2)cc1OC,24%
O=C(CSc1nnc2ccc(-c3cccc([N+](=O)[O-])c3)nn12)NCc1ccc(F)cc1,-10%
COC(=O)c1ccc(NC(=O)CSc2nnc(C)c(=O)[nH]2)cc1,-9%
CCOc1ccc2nc(NC(=O)c3ccc(Oc4ccccc4)cc3)sc2c1,9%
C=CCNC(=O)c1cc2c(=O)n3ccccc3nc2n(CC=C)c1=N,0%
# (cont.)
SMILES,Mtb growth
O=C(CCCN1C(=O)/C(=C/c2ccc3c(c2)OCO3)SC1=S)N1CCCCC1,42%
CN(C)c1ccc(Nc2nncc(=O)[nH]2)cc1,8.1µg/mL*
O=c1/c(=C/c2ccccc2[N+](=O)[O-])sc2nc(-c3ccccc3Br)nn12,13%
COc1ccc(C(=O)Cn2cnc3c(nnn3-c3cccc(C)c3)c2=O)cc1,-3%
Cc1cc(Cl)ccc1OCC(=O)NNC(=O)c1cccc([N+](=O)[O-])c1,0%
Cc1cccc(Cn2c(NC3CC(C)CC(C)(C)C3)nc3c2c(=O)[nH]c(=O)n3C)c1 (stereo not given),8%
CCC(=O)Nc1c(C(=O)Nc2ccc(C)c(C)c2)oc2ccccc12,0%
Clc1ccc(C2C=C(c3ccco3)Nc3ncnn32)cc1 (stereo not given),-2%
Cc1ccc(C(=O)Nc2ccc3c(c2)C(=O)NC3=O)cc1,-1%
CN(C(=O)C(C)(C)C)c1nnc(C23CC4CC(CC(C4)C2)C3)s1,60%
O=C(Nc1nnc(-c2ccc(Cl)cc2)o1)c1cc2ccccc2oc1=O,18µg/mL*
O=c1c2nnn(-c3cccc(F)c3)c2ncn1Cc1ccccn1,-3%
CCOc1ccccc1NC(=O)c1oc2ccccc2c1NC(=O)c1ccccc1OC,-2%
Cn1c(=NC(=O)c2cc3c(ccc4ccccc43)oc2=O)sc2cccc(F)c21,-12%
CS(=O)(=O)c1cccc(-c2nnc(NC(=O)c3ccc(Oc4ccccc4)cc3)o2)c1,-14%
Cc1c(Cc2ccc3c(c2)OCO3)sc(NC(=O)c2ccccc2Oc2ccccc2)c1C#N,0%
O=C(CSc1nnc2sc3ccccc3n12)NCc1ccc2c(c1)OCO2,6%
COc1ccc(C(=O)Nc2sc3c(c2C#N)CCC3)cc1OC,4%
O=C(c1ccc(S(=O)(=O)N2CCCCC2)cc1)N1CCN=C1SCc1ccc([N+](=O)[O-])cc1,-13%
CCOc1ccc(Nc2nc3c([nH]2)c(=O)[nH]c(=O)n3C)cc1,-5%
Cc1cc2cc(CCNC(=O)c3ccc([N+](=O)[O-])cc3)c(=O)[nH]c2cc1C,-8%
COc1ccc(N=C2O/C(=C/c3sc(=S)n(CC4CCCO4)c3O)N=C2C#N)cc1 (stereo not given),-6%
O=C(Nc1nnc(-c2ccc(F)cc2)o1)c1ccc(Cl)cc1,18µg/mL*
O=C(Nc1nnc(-c2ccc(F)cc2)s1)c1cccc2ccccc12,5%
CC(=O)Nc1cccc(OC2N=C(C)Nc3sc4c(c32)CCC4)c1 (stereo not given),16%
COc1cccc(C(=O)Nc2c(C(=O)Nc3ccc([N+](=O)[O-])cc3)oc3ccccc23)c1,4%
CCOC(=O)N1CCN(C(=O)c2cc3cc([N+](=O)[O-])ccc3oc2=O)CC1,-13%
Cc1cc(OC(=O)C2CC2)c([N+](=O)[O-])c(=O)[nH]1,0%
COc1ccc(C(=O)Nc2c(N)nc(SCC(=O)NC3CCCC3)[nH]c2=O)cc1OC,2%
O=C(CSc1ccc2nnc(-c3ccncc3)n2n1)NCc1ccc(F)cc1,-6%
O=C(/C=C/c1ccc(-c2cccc([N+](=O)[O-])c2)o1)c1cccs1,-9%
CC1Cc2ccccc2N1Cc1cc(=O)c(OCC(=O)Nc2ccc(Cl)cc2)co1 (stereo not given),-10%
O=c1c2cnn(-c3cccc(Cl)c3)c2ncn1Cc1ccc(C(F)(F)F)cc1,3%
O=C(OCn1nnc2ccccc2c1=O)c1ccco1,4.8µg/mL*
CCCCCCn1c(SC(C)C(C)=O)nc2c1c(=O)[nH]c(=O)n2C (stereo not given),13%
CCN(CC)CCOC(=O)c1ccc(N/C=C(\C#N)c2nc(-c3ccc(Br)cc3)cs2)cc1,24%
COc1ccc(Nc2ncnc(N)c2[N+](=O)[O-])cc1,-2%
Cc1ccc(-n2nnc3c(=O)n(CC(=O)NCc4ccco4)cnc32)cc1Cl,-1%
O=C(Nc1nc(-c2ccc3ccccc3c2)cs1)c1ccco1,84%
O=C(Nc1ccccc1Oc1ccccc1)c1cc(-c2ccccc2)nc2ccccc12,35%
COc1ccc(C(=O)Nc2nc3c(C)c(C)ccc3s2)cc1OC,-4%
O=C(CSc1ccc(-c2ccc3c(c2)OCO3)nn1)N1CCN(c2ccccc2)CC1,-10%
O=C(CSc1ncnc2ccccc12)N1CCc2ccccc21,-5%
O=C1CCc2cc(S(=O)(=O)Nc3ccc(Cl)c(Cl)c3)cc3c2N1CCC3,1%
CCCCOc1ccc(C(=O)Nc2nc3ccc(Cl)cc3s2)cc1,13%
CC(C)c1ccc(NC(=O)CCn2c(=O)oc3ccccc32)cc1,12%
CCOC(=O)C1=C(C)NC(=O)NC1c1ccc(N(CC)CC)cc1 (stereo not given),10%
NC(=O)c1c(NC(=O)c2ccc3ccccc3c2)sc2c1CCCC2,0%
Cc1ccc(S(=O)(=O)CCC(=O)N(CCCN(C)C)c2nc3c(Cl)cccc3s2)cc1,-1%
COc1ccc(S(=O)(=O)c2cn(CC(=O)Nc3ccc(Cl)cc3)c3ccc(C)cc3c2=O)cc1,5%
O=C(Nc1nc2ccc(Cl)cc2s1)c1ccc(Cc2ccccc2)cc1,19%
CS(=O)(=O)c1ccccc1-c1nnc(NC(=O)c2cccc(NS(=O)(=O)c3ccccc3)c2)o1,-66%
COc1ccc(C(=O)Nc2c(N)nc(SCC(=O)Nc3nc4ccccc4s3)[nH]c2=O)cc1,-2%
CCCc1cc(=O)[nH]c2nnc(SC(CC)C(=O)OC)n12 (stereo not given),9%
Cc1ccc(-c2nnc(NC(=O)c3ccc(Br)cc3)o2)c(C)c1,52µg/mL*
O=C(CSc1nc2[nH]ncc2c(=O)[nH]1)NCc1ccc(F)cc1,-4%
CS(=O)(=O)c1cccc(-c2nnc(NC(=O)/C=C/c3ccccc3Cl)o2)c1,-2%
COc1cccc(C(=O)Nc2nnc(-c3ccc(Cl)cc3)s2)c1,25%
Cc1ccc(NC(=O)c2cnc(SCc3ccc(F)cc3)n(C)c2=O)cc1C,1%
N#Cc1c(NC(=O)c2cc(Cl)ccc2Cl)sc2c1CCN(Cc1ccccc1)C2,12µg/mL*
# (more compounds)
SMILES,Mtb growth
COc1cccc(-n2c(=O)c3sc4ccccc4c3n(CC(=O)NC3CCCCC3)c2=O)c1,-10%
COC(=O)c1ccccc1NC(=O)CSc1nnc(CSc2nc(C)cc(C)n2)o1,-16%
CC(=O)Nc1ccc2nc(Nc3nc4ccc(C(C)C)cc4s3)sc2c1,2µg/mL*
CCOC(=O)c1nn(-c2ccc(C)cc2)c(=O)c2c(NC(=O)c3ccc(F)cc3)scc12,-3%
Cn1c(=O)[nH]c(=O)c2c1nc(N1CCN(c3ccccc3)CC1)n2CC(O)COc1ccccc1 (stereo not given),13%

# Screening data from PubChem BioAssay.

# This is a subset; the hit share may differ from the screen's.
